# Bioassay records: PubChem BioAssay, National Center for Advancing Translational Sciences (NCATS)
# VDR inhibitor: vitamin D3 receptor (human) inhibition | P11473 | VDR-SRC2-3 peptide fluorescence polarization, 2 h | Potency, µM, for inactives: max response, negative = inhibition, hits mostly inhibitors | actives 0.93% (n = 400,000); active means well fitted inhibition curve with a large enough effect; inconclusive means small, poorly fitted or top-dose-only effect, or another doubt; inactive means no such curve, though single readings can be large or run the other way; further: series mostly up to about 120 µM
# Target sequence (P11473 whole entry, looked up): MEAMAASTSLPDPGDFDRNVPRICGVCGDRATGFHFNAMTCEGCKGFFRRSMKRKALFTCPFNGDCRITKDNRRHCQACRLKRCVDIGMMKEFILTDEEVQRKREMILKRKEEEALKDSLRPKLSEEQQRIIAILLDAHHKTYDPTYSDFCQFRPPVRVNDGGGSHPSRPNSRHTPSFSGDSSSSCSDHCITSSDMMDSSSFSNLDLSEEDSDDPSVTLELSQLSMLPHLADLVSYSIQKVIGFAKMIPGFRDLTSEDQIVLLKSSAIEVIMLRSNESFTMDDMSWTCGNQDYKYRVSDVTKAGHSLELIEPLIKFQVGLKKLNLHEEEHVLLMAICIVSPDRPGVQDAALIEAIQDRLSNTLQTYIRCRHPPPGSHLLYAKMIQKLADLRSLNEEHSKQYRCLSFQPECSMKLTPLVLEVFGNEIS
#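 Reagent solutions, kept cold and dark, are dispensed first; compounds are then pinned in at 23 nl, plates briefly spun, and incubated 2 h at ambient temperature. Inhibition of VDR–SRC2-3 peptide binding is read by fluorescence polarization.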
# * = called active by the depositor; ? = inconclusive; & = joins results of further samples; [ ] = remark or other dose. On the % scale 0 is the no-effect control and ±100 the full control effect; potency means the concentration at half of the fitted maximal effect. The list is partial. The share of hits here may be higher or lower than overall.
VDR inhibitor	SMILES
1.8%	CCOC(=O)c1c(C)[nH]c(C)c1S(=O)(=O)N(C)CC(=O)N1CCN(c2ccccc2OC)CC1
-6.2%	COc1ccc(NC(=O)Cc2nnc(SCC(=O)NC3CCCCC3)n2C)cc1
-3.0%	Cc1cc(NC(=O)CSc2nc3ccccc3c(=O)n2Cc2ccccc2)no1
?	O=C(CN1C(=O)COc2ccccc21)Nc1ccccc1F
-6.7%	CCc1ccc2c(CN3CCOCC3)cc(=O)oc2c1
7.4%	CCOc1ccccc1Nc1nc2c(S(=O)(=O)c3ccc(C)cc3)nnn2c2ccsc12
1.7%	O=c1c2ccccc2ncn1CCCOc1ccccc1[N+](=O)[O-]
9.0%	Cc1ccc(CCNC(=O)c2ccc(Cn3c(=O)c4cccn4c4cccnc43)cc2)cc1
-4.9%	C=CCOc1ccc(/C=N\NC(N)=S)cc1
-5.2%	CC1(NC(=S)Nc2ccc3ccccc3c2)CCS(=O)(=O)C1 (centres undefined)
-10.2%	O=C(OCC(=O)N1CCN(c2ccccc2)CC1)c1cccs1
4.4%	O=C(CSc1ccc2nnc(-c3cccnc3)n2n1)c1ccccc1
-24.0%	N#Cc1ccc(Cl)cc1NC(=O)CNc1cccc(S(=O)(=O)N2CCCC2)c1
3.8%	Cc1ccc(S(=O)(=O)NC2CC2)s1
9.7%	O=C(CSc1cccc[n+]1[O-])Nc1ccc2c(c1)OCO2
2.9%	CC1(C)CC(CC(=O)Nc2ccccn2)C(=O)O1 (centres undefined)
89.1µM*	CSc1nc2c(c(=O)[nH]c(=O)n2C)n1Cc1ccc(Cl)cc1
-6.1%	O=C(CSc1nc(-c2ccco2)cc(C(F)(F)F)n1)Nc1ccccc1C(F)(F)F
3.5%	CCOC(=O)[C@@H]1[C@H]2COc3ccc(Br)cc3[C@@H]2N2C(=O)N(c3ccc(OC)cc3)C(=O)[C@]12C
15.2%	Cc1ccc(S(=O)(=O)N2CCOCC2)cc1C(=O)N1c2ccccc2Sc2ccccc21
13.5%	CC(/C=C/c1ccccc1F)=N\NC(=O)c1ccccc1
-9.9%	CCOc1ccc(CNC(=O)CCn2c(=O)c3cccn3c3ccc(F)cc32)cc1
-5.0%	CCC(C)(C)NC(=O)C1CCCN(S(=O)(=O)c2ccc3c(c2)CC(C)N3C(=O)C2CC2)C1 (centres undefined)
7.0%	O=C1c2ccccc2C(=O)N1CC(O)CNc1ccc(Br)cc1 (centres undefined)

# Some of these compounds in order of count of non-hydrogen atoms, lowest first:
VDR inhibitor	SMILES
3.8%	Cc1ccc(S(=O)(=O)NC2CC2)s1
-24.0%	N#Cc1ccc(Cl)cc1NC(=O)CNc1cccc(S(=O)(=O)N2CCCC2)c1
9.0%	Cc1ccc(CCNC(=O)c2ccc(Cn3c(=O)c4cccn4c4cccnc43)cc2)cc1

# Additional structures follow.
VDR inhibitor	SMILES
6.0%	O=C(Nc1sc2c(c1C(=O)NCC(O)CO)CCCC2)c1ccccc1 (centres undefined)
7.8%	CN(Cc1ccc(OC(F)F)cc1)C(=O)/C=C/c1ccc(S(=O)(=O)N2CCOCC2)cc1
-4.0%	COc1cccc(C2=CC(=O)C[C@H](c3ccc4c(c3)OCO4)C2)c1
15.0%	O=C(CCc1nc(-c2ccccc2F)no1)NCCN1CCc2ccccc2C1
9.3%	CCOc1ccc(-c2nnc(SCC(=O)NCCc3ccc(OC)c(OC)c3)nc2-c2ccc(OCC)cc2)cc1
-14.0%	NC(=O)CC[C@@H]1NC(=O)[C@H](CO)NC(=O)c2cc([N+](=O)[O-])cc(I)c2NCCCC[C@@H](C(N)=O)NC(=O)[C@H](Cc2ccc(O)cc2)NC1=O
4.5%	CCS(=O)(=O)N1CCCC(C(=O)NCCOC)C1 (centres undefined)
6.3%	COc1ccc(CC(=O)NC(=S)Nc2cccc(CO)c2)cc1
20.3%	COc1ccc(/C=N/NC(=O)c2cc(-c3ccccc3)nc3ccccc23)c(C(=O)O)c1OC
-4.6%	CC(C)(C)C1CCc2c(C(=O)NNC(=O)CCCC(=O)O)csc2C1 (centres undefined)
45.9%[activator]	COCCNc1nc(-c2cccc(NS(C)(=O)=O)c2)nc2ccccc12
?	COC(=O)c1nn(-c2ccc(OC)cc2)c(=O)c2c(N)sc(C)c12

# Three of the compounds above, tab-delimited:
compound	VDR inhibitor
COC(=O)c1nn(-c2ccc(OC)cc2)c(=O)c2c(N)sc(C)c12	?
COc1ccc(CC(=O)NC(=S)Nc2cccc(CO)c2)cc1	6.3%
COc1cccc(C2=CC(=O)C[C@H](c3ccc4c(c3)OCO4)C2)c1	-4.0%

# The listing continues.
VDR inhibitor	SMILES
-2.5%	CC(C)NC(=O)N1CCN(S(=O)(=O)c2ccc3c(ccn3C)c2)CC1
-2.3%	O=C(NC(CO)(CO)CO)[C@@H]1CCCN1S(=O)(=O)c1cccc2cccnc12
-3.2%	Cc1cc(N2C(=O)C(O)=C(C(=O)c3cccs3)C2c2cccc(Br)c2)no1 (centres undefined)
-13.2%	COc1ccc(OCC(=O)OCC(=O)NC2CCCCC2C)cc1 (centres undefined)
-8.8%	CCc1ccccc1NC(=S)NC1CC2CCC(C1)N2Cc1ccco1 (centres undefined)
?	O=c1c(CCc2ccccc2)nc2cncnc2n1Cc1ccccc1
5.2%	CCCCc1cc(=O)oc2cc(OCC(=O)NC(Cc3c[nH]c4ccc(O)cc34)C(=O)O)ccc12 (centres undefined)
7.6%	CCOC(=O)c1sc(NS(=O)(=O)c2cc(C)ccc2C)nc1C
20.1%	Cc1ccnc(SCCn2c(Br)nc3c2c(=O)[nH]c(=O)n3C)n1
0.8%	CC(=NCc1ccc2c(c1)OCO2)C1=C(O)c2ccccc2C1=O
-5.8%	CCN(CC)CCCNC(=O)c1sc2nc(-c3ccc(F)cc3)cn2c1C
-1.8%	O=C(Nc1ccc2nn(-c3ccccc3)nc2c1)c1cccnc1
-14.8%	CCC(=O)c1ccc(OCC(=O)N2CCc3cc(OC)c(OC)cc3C2)cc1
0.9%	COc1ccc(C(=O)N[C@H](C(=O)NCc2cccs2)C(C)C)cc1
9.7%	Cc1nn(C)cc1CNC(=O)COc1ccc(Cl)cc1Cl
13.1%	Cc1cccc(-c2nc(CNC(=O)c3ccco3)cs2)c1
-14.2%	COCC(C)n1c(SCC(=O)Nc2oc(C)c3c(C)n[nH]c(=O)c23)nc2ccccc2c1=O (centres undefined)
-4.9%	Cc1csc(NC(=O)C2CCC(C)(C(=O)O)C2(C)C)n1 (centres undefined)
7.6%	Cc1ccn2c(=O)cc(CSc3nnc(NC(=O)c4ccccc4Cl)s3)nc2c1
4.1%	CCN1CCN(C(c2cccs2)C(C)NS(=O)(=O)c2ccccc2)CC1 (centres undefined)
-9.8%	O=C(CCC1CCCC1)N[C@@H](Cc1ccc(O)cc1)C(=O)O
-4.7%	Clc1nc(Oc2ccccc2)nc(-c2cn(-c3ccccc3)c3ccccc23)n1
2.1%	Cc1csc(/C(=N/OC(=O)c2ccco2)C(N)=O)n1
-3.6%	COc1ccc(-c2ccnc(SCC(=O)c3ccc(Cl)cc3)n2)cc1
3.6%	O=C(N/N=C/c1ccc(OC2CSC2)cc1)c1ccccc1
-4.1%	c1ccc(Cn2c(-c3ccccc3)nc3nc4ccccc4nc32)cc1
-7.2%	COCCN(CC(=O)NC1CCCCC1)C(=O)CSc1nc2ccccc2o1
0.9%	Cc1ccccc1Cn1c(=O)n(CC2CCC(C(=O)N3CCOCC3)CC2)c(=O)c2sccc21 (centres undefined)
-11.6%	Fc1ccc(Nc2nc(-c3cccnc3)cs2)cc1
3.4%	O=C(NCC1CCCN1S(=O)(=O)c1cccs1)c1ccc([N+](=O)[O-])cc1 (centres undefined)
-17.1%	Cc1cc(NC(=O)CSCc2ccccc2)no1
-13.0%	CC(C)CC1c2[nH]c3ccccc3c2CCN1CCCn1cccn1 (centres undefined)
2.4%	CN(C)Cc1c(C(=O)N/N=C/c2cccs2)nnn1-c1nonc1N
7.2%	CCOc1ccc(C(O)Cn2c(=N)n(CCN3CCCCC3)c3ccccc32)cc1 (centres undefined)
-8.6%	COC(=O)c1cccc(Nc2nn3c(=O)c4cc5c(cc4nc3s2)OCO5)c1
-23.7%	COC(=O)CN1CC(=O)c2ccccc2S1(=O)=O
4.5%	CCc1ccc(Nc2nc(N3CCOCC3)nc(N3CCOCC3)n2)cc1
1.4%	CCS(=O)(=O)c1ccc(C(=O)Nc2cccc(Cl)c2)c(Cl)c1Cl
?	Cc1ccc(C(=O)N[C@H](C(=O)Nc2cc(Cl)cc(Cl)c2)C(C)C)cc1
7.0%	COc1ccc(/C=N/NC(=O)c2ccccc2O)cc1Cn1cc(Cl)cn1
13.9%	CCS(=O)CC(=O)Nc1c(-c2ccccc2)oc2ccccc2c1=O (centres undefined)
2.5%	CCOC(=O)C(NC(=O)CC)(Nc1sc2c(c1C(=O)OC)CCN(C)C2)C(F)(F)F (centres undefined)
16.4%	CCCNc1c(NS(=O)(=O)c2ccc(Cl)s2)c(=O)oc2ccccc12
-8.0%	Cc1ccsc1/C=N/NC(=O)Cc1cc(=O)[nH][nH]1
-20.2%	CCOc1ccc(Br)cc1C1NC(=O)c2c(sc3c2CCN(C)C3)N1 (centres undefined)
-8.8%	CCc1ccc2[nH]c(=O)c(C3C(C#N)=C(N)Oc4c3ccc3cccnc43)cc2c1 (centres undefined)
-11.6%	Cc1ccc(O)c(C2=Nc3ccccc3C2(C)C)c1
-5.9%	Cc1cc(N2CCOCC2)ncc1[N+](=O)[O-]
12.3%&10.2%	CC(C)OCCCN(C)C1CCN(S(=O)(=O)c2csc(C(N)=O)c2)CC1
-9.3%	Cn1c(SCC(=O)Nc2sccc2C(N)=O)nc2ccccc2c1=O
-4.2%	CCOC(=O)N1CCN(c2c(NCC3CCN(Cc4cccc(C)c4)CC3)c(=O)c2=O)CC1
1.0%&0.8%	CCCCCC1C(=O)CCC1CC(=O)OC (centres undefined)
5.9%	CCCCN1CC(=O)N2[C@H](c3ccc(Cl)cc3)[C@@H]3C(=O)N(CC)C(=O)[C@@H]3[C@]2(C)C1=O
-3.8%	COc1cc2c3cc1Oc1cc(ccc1O)C[C@@H]1c4c(cc(OC)c(O)c4Oc4ccc(cc4)C[C@@H]3N(C)CC2)CC[N+]1(C)C
-3.5%	COC(=O)C1CN(C(=O)COc2ccc(C)c(C)c2)c2ccccc2O1 (centres undefined)
-13.1%	Cc1ccc2nc(-c3cccc(SC4CCCCC4)c3)c(NCc3ccccc3)n2c1
1.8%	COc1ccccc1C(=O)Nc1ccnn1C1CCN(C(=O)c2ccoc2)CC1
-8.6%	O=C(CSc1ccccc1C(=O)N1CCN(c2ccc([N+](=O)[O-])cc2)CC1)N1CCCC1
-14.0%	Cc1ccccc1SCc1noc(C(=O)NC(C)C)c1C(=O)O
-16.3%	COc1ccc(-c2cc(C(=O)N3CCc4ccccc4C3)no2)cc1

# Three of the entries above in order of the VDR inhibitor value, smallest number first.
VDR inhibitor	SMILES
-14.0%	Cc1ccccc1SCc1noc(C(=O)NC(C)C)c1C(=O)O
-9.3%	Cn1c(SCC(=O)Nc2sccc2C(N)=O)nc2ccccc2c1=O
1.8%	COc1ccccc1C(=O)Nc1ccnn1C1CCN(C(=O)c2ccoc2)CC1

# Following part
VDR inhibitor	SMILES
2.1%	CCOc1ccccc1NC(=O)COc1coc(CN2CCc3ccccc32)cc1=O
1.0%	CN(C)CC1CCn2c(c(C3=C(c4cn(C)c5ccccc45)C(=O)NC3=O)c3ccccc32)C1 (centres undefined)
4.9%	CC(Oc1ccc(Cl)cc1Cl)C(=O)Nc1ncccn1 (centres undefined)
-16.4%	Cc1ccc(-c2ccc(C(=O)NCCCNC(=O)c3cnccn3)o2)cc1Cl
4.0%	Cc1ccc(C)c(NS(=O)(=O)c2ccc(OCC(=O)NCC3CCCO3)cc2)c1 (centres undefined)
13.2%	CC1CCN(C(=O)C2CCCN(S(=O)(=O)c3ccc4c(c3)CC(C)N4C(=O)C3CC3)C2)CC1 (centres undefined)
1.2%	COc1cc(NC(=O)Cn2ccn(-c3cc(C)cc(C)c3)c(=O)c2=O)cc(OC)c1
?	COc1ccc(-n2nnnc2Sc2ccc(S(=O)(=O)N3CCOCC3)cn2)cc1
11.2%	Cc1ccc2nc(-c3ccncc3)cc(C(=O)N3CCOCC3)c2c1
-6.4%	CC(CCC#N)[N+](=O)[O-] (centres undefined)
-16.4%	Cc1occc1C(=O)N1CCCC(N2CCN(c3cccc(Cl)c3)CC2)C1 (centres undefined)
9.6%	Cc1c(C)n(Cc2ccc(Cl)cc2)c2ccc(C(=O)NCCc3ccc(S(N)(=O)=O)cc3)cc12
-18.3%&-19.9%	COc1ccccc1N1CCN(C(=O)c2cc(-c3ccc(F)cc3)on2)CC1
3.6%	Cc1cc(OCC(=O)Nc2ccncc2)ccc1Cl
3.3%	CCN(Cc1ccccc1)C(=O)Cn1c(=O)n(-c2ccccc2)c(=O)c2c1c1cc(C)ccc1n2C
7.2%	CCc1noc(N)c1C(=O)Nc1ccc(F)c(Cl)c1
-3.5%	COc1ccc(N2CCN(S(=O)(=O)c3c(C)nc4sccn4c3=O)CC2)cc1
-6.7%	O=C(COc1ccc(/C=N/NS(=O)(=O)c2ccccc2)cc1)Nc1ccccc1
-8.9%	COc1ccc(CCNC(=O)CN(c2cccc([N+](=O)[O-])c2)S(C)(=O)=O)cc1OC
11.3%	CC(=O)c1ccc(NC(=O)Cn2ncc3c4ccccc4n(Cc4ccccc4)c3c2=O)cc1
0.7%	CCC1=C(c2ccc(C)cc2)S(=O)(=O)N=C1N1CCC(C(=O)NCc2ccccc2Cl)CC1
-5.6%	CCc1cccc(NC(=O)Cn2cc(C(=O)c3ccncc3)c(=O)c3cc(C)c(C)cc32)c1
-5.2%	O=C(COc1ccc(C(=O)NCc2cccnc2)cc1)Nc1cccc(C(F)(F)F)c1
-1.3%	COc1ccc(C2C(C#N)=C(C)NC(C)=C2C#N)c(OC)c1
?	O=C(O)CCC/C=C\C[C@@H]1CO[C@H](C(F)(F)F)O[C@@H]1c1ccccc1O
